Source: PubChem BioAssay
RE007 growth inh – less growth of the S. pombe RE007 Vpr strain. S. pombe RE007 Vpr strain, BacTiter-Glo ATP luminescence, 24 h; control for the full effect not named in the record. Potency, µM (top dose mostly 92.2 µM), for the others: at the highest dose activity change, negative = less growth. 360,000 compounds, 0.21% hits. AID 651644; active = well fitted falling curve with a large enough effect; inconclusive = small, poorly fitted or top-dose-only effect; inactive = no such curve, though single readings can be large or run the other way;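 also: nearly all actives have a fitted effect of over 50% in size; the assay follows cell death caused by Vpr and the record does not say whether a fall means rescue or toxicity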
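Fission yeast strain RE007, carrying one chromosomally integrated HIV-1 vpr copy, was seeded at OD 0.01 in PMG+AL medium with 23 nL pinned compound. After 24 h at 30 °C and 99% humidity, viability was read by BacTiter-Glo luminescence.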
2A StopGo – lowers the luciferase signal of an FMDV 2A StopGo reporter; Potency, µM (top dose mostly 57.9 µM), inactives show top-dose signal change, negative = less light; 410,000 compounds, 1.2% hits; AID 1159524; human cells with a luciferase reporter of 2A StopGo recoding; control for the full effect not named in the record; active = well fitted falling curve with a large enough effect; inconclusive = small, poorly fitted or top-dose-only effect; inactive = no such curve, though single readings can be large or run the other way; tested in HEK293T cells; also: nearly all actives have a fitted effect of over 45% in size; luciferase light after 4 h
Active calls of the source: *; u = inconclusive; [ ] = dose if it differs, or a comment. % is scaled to controls: 0 for no effect and ±100 for the full control effect; potency is read from the fitted curve at half-maximal effect. These rows are one share of the data; count on the stated rates, not on these rows.

no.	molecule	RE007 growth inh	2A StopGo
1	CC1=C(C(=O)N(C)C)CC(CC(=O)NC2CCCCC2)C(=O)N1Cc1ccc(F)cc1 (stereo not drawn)	9.1%	2.2%
2	COc1cc2ccc(CC(N)=O)cc2cc1OC	2.3%	-22.8%
3	CCC(=O)N(Cc1cc2cc(OC)ccc2[nH]c1=O)c1ccccc1OC	-7.2%	-7.6%
4	Cn1c(=NN=Cc2ccccc2OCCO)sc2ccccc21	-3.0%	-2.5%
5	C[C@@H]1CN([C@H](C)CO)C(=O)CCCn2nncc2CO[C@H]1CN(C)S(=O)(=O)c1ccccc1	6.2%	-17.0%
6	CN1CCN(c2ccc(CNC(=O)C3(C)Cc4c(-c5ccc(C(N)=O)cc5)ccnc4O3)cc2)CC1 (stereo not drawn)	-23.2%	-9.2%
7	CC(C)(C(=O)N1CCC1(C)C(=O)NS(=O)(=O)c1ccc(Cl)s1)c1ccccc1 (stereo not drawn)	-6.1%[18.4 µM]	39.7%[activator]
8	COC(=O)[C@]12CCCCC=C1N(Cc1ccco1)C(=O)[C@H](CC(=O)N1CCN(C(=O)C3CC3)CC1)C2	-1.4%	-18.2%
9	CC(C)NC(=O)c1ccc2sc([C@@H]3O[C@H](CO)[C@H](O)[C@H](O)[C@H]3O)nc2c1	-6.7%[18.4 µM]	-17.5%
10	CCc1nc(NCc2cccs2)c2nnn(Cc3ccccc3)c2n1	11.3%	-16.5%
11	Cc1ccc2nc(-c3cccc(Cl)c3)c(Cc3cccc(F)c3)n2c1	-4.8%	12.7%
12	O=C(Nc1ccccc1)c1cc(C2CCCN(C(=O)c3cccs3)C2)on1 (stereo not drawn)	4.3%[18.4 µM]	26.4%
13	CN1CCN(c2ccc(S(=O)(=O)N3CCOCC3)cc2NC(=O)C2CCCCC2)CC1	-4.1%	-5.6%
14	CSCCC(NC(=O)c1cc(S(=O)(=O)N2CCOCC2)ccc1C)c1nc2ccccc2[nH]1 (stereo not drawn)	-18.2%	4.6%
15	COc1ccc(-c2csc(NC(CO)c3nc4ccccc4n3CCCO)n2)cc1 (stereo not drawn)	1.3%	-0.2%
16	Cc1ccsc1C(=O)N1CCC1(C)C(=O)Nc1ccc2c(c1)OCCO2 (stereo not drawn)	6.9%[18.4 µM]	2.3%
17	Cc1cc(C)cc(SCc2noc(C(=O)NCCC(C)C)c2C(=O)NCCC(C)C)c1	6.0%	-16.9%
18	Cc1c(NC(=O)CSc2nnc(-c3ccccc3F)o2)c(=O)n(-c2ccccc2)n1C	-5.5%	u
19	CCN(CC)C(=O)C1=C(C)N(CCCOC)C(=O)C(CC(=O)NC2CCCC2)C1 (stereo not drawn)	13.6%	-9.4%
20	CC(C)c1cccc(-c2csc(C(O)c3cccc(Cl)c3)n2)c1 (stereo not drawn)	u	-14.8%

no.	molecule	RE007 growth inh	2A StopGo
21	CCN1C(=O)[C@H]2[C@@H](c3ccc(OC)cc3)N[C@]3(CCCN(Cc4ccc(F)cc4)C3=O)[C@H]2C1=O	16.7%	-13.4%
22	COCCCNC(=O)CC[C@H]1O[C@@H](n2cnc3c(NC(=O)c4ccccc4)ncnc32)[C@H](O)[C@@H]1O	2.6%	-9.1%
23	CCOC(=O)c1nc2ccc(C)cc2c2c1C1CC(c3c(Cl)cccc31)N2C(=O)OCc1ccccc1 (stereo not drawn)	3.7%	u
24	CC(C)C(=O)N1CCC1(C)C(=O)Nc1ccc2cn[nH]c2c1 (stereo not drawn)	3.6%	5.7%
25	C=C1CCN([C@@H](CC(C)C)C(=O)Nc2ccc(OC)cc2)S(=O)(=O)c2ccccc21	1.5%	18.7%
26	COc1ccc(NC(C)=O)cc1S(=O)(=O)NCc1ccc2c(c1)OCO2	6.2%	-0.4%
27	C[C@H]1CN([C@@H](C)CO)C(=O)CCCn2nncc2CO[C@@H]1CN(C)C(=O)c1ccccc1	33.8%	-1.3%
28	C[C@H](CO)N1C[C@H](C)[C@@H](CN(C)Cc2cncnc2)Oc2cc(Br)ccc2S1(=O)=O	14.5%	0.1%
29	COc1ccc(/C=C/C(=O)OCC(=O)N2c3ccccc3CC2C)c(OC)c1 (stereo not drawn)	0.0%	-1.4%
30	C[C@H]1CN([C@@H](C)CO)C(=O)CCCn2cc(nn2)CO[C@@H]1CN(C)C(=O)Nc1ccc(N2CCN(C)CC2)cc1	-12.7%	-13.6%
31	C[C@@H]([C@@H](O)c1ccccc1)N(C)C(=O)Cc1ccccc1	9.4%	10.7%
32	COc1cccc(C(O)c2nc(-c3ccncc3)cs2)c1 (stereo not drawn)	6.1%	u
33	COC(=O)C1(C(=O)OC)C/C=C\CCN(S(=O)(=O)c2ccccc2[N+](=O)[O-])CC1	-17.9%	-8.7%
34	CCOC(=O)c1cc2c(c(CCO)n1)[C@@H](CCO)N(S(=O)(=O)C(C)(C)C)C2	3.1%	-21.6%
35	COC1C(O)C(C)OC(OC2CCC3(C=O)C(CCC4C3CCC3(C)C(C5=CC(=O)OC5)CCC43O)C2)C1O (stereo not drawn)	-9.8%	u
36	Cc1cccc(-c2cccc3nccn23)c1	-13.4%	-16.6%
37	O=C(NCc1ccccc1)C1C(c2ccccc2)=Nc2ccccc2N1C(=O)c1cccnc1 (stereo not drawn)	5.3%	-4.1%
38	COc1cc(NC(=O)c2cccc3c(-c4cccnc4)coc23)cc(OC)c1OC	2.5%	12.6µM*
39	COc1ccc(CN2[C@@H](CC(=O)O)c3cc(C(F)(F)F)ccc3S2(=O)=O)cc1	4.2%	-3.0%
40	OC(c1ccccc1)c1nc(-c2ccc3c(c2)OCO3)cs1 (stereo not drawn)	-9.7%	21.3%

Full records, quoted from the list.
CCN1C(=O)[C@H]2[C@@H](c3ccc(OC)cc3)N[C@]3(CCCN(Cc4ccc(F)cc4)C3=O)[C@H]2C1=O reads RE007 growth inh: 16.7%; 2A StopGo: -13.4%
COC(=O)C1(C(=O)OC)C/C=C\CCN(S(=O)(=O)c2ccccc2[N+](=O)[O-])CC1 reads RE007 growth inh: -17.9%; 2A StopGo: -8.7%
OC(c1ccccc1)c1nc(-c2ccc3c(c2)OCO3)cs1 (stereo not drawn) reads RE007 growth inh: -9.7%; 2A StopGo: 21.3%

Remaining list, next part.
no.	molecule	RE007 growth inh	2A StopGo
41	COc1ccc(CCNC(=O)c2cc3c(=O)n4ccccc4nc3n(CC3CCCO3)c2=N)cc1 (stereo not drawn)	-7.5%	-23.2%
42	COC(=O)[C@@]12C[C@@H](CC(=O)NCC3CCCCC3)C(=O)N(Cc3ccco3)C1=CCC(C)(C)C2	0.0%	16.2%
43	Cc1ccc(S(=O)(=O)N2C[C@H]3n4c(=O)ccc(=O)n4C[C@H](OC(=O)NCc4ccccc4)[C@@]3(O)C2)cc1	2.2%	0.0%
44	CCCCCn1nnnc1-c1nc2cc3ccccc3cc2[nH]c1=O	4.1%	u
45	C=C1CCN([C@@H](Cc2ccccc2)C(=O)O)S(=O)(=O)c2ccccc21	14.6%	-12.9%
46	COc1ccc(NC(=O)C2(C)Cc3c(-c4cccc(NC(C)=O)c4)ccnc3O2)cc1OC (stereo not drawn)	7.3%	0.0%
47	CCC(=O)N1CCCC1(C)C(=O)Nc1ccc(C)c(C)c1 (stereo not drawn)	-9.9%	-10.4%
48	CN(C)CCNc1nc(Oc2ccccc2)c2sccc2n1	2.3%	-12.7%
49	COc1ccc(-c2coc3c(C(=O)Nc4ccc(OC)nc4)cccc23)c(C)c1	7.0%[18.4 µM]	u
50	O=C(O)c1ccccc1C(=O)c1ccc(F)c(F)c1	12.9%	-15.0%
51	COc1ccc(C(=O)C(C)OC(=O)C2CC3CCCC(C2)C3=O)cc1 (stereo not drawn)	3.0%	-26.9%
52	CCN1C[C@@H]2[C@@H]3C(=O)N(Cc4ccccc4)C(=O)[C@@H]3[C@](C)(C1=O)N2C(=O)c1ccc(C(C)(C)C)cc1	5.0%	-23.5%
53	CC1(C)CC(=O)C=C(c2ccc(COC(=O)c3cccc(C(F)(F)F)c3)cc2)C1=O	8.7%	-29.0%
54	Cc1ccc2nc(-c3ccco3)c(Cc3cccc(Cl)c3)n2c1	-26.4%	10.4%
55	Cc1ccc(S(=O)(=O)NC(=O)C2(C)CCN2C(=O)Cc2ccc(C(C)(C)C)cc2)cc1 (stereo not drawn)	4.7%	0.0%
56	CCOC(=O)C1=CCN(S(=O)(=O)c2ccc(Cl)cc2)C1c1ccc(C)cc1 (stereo not drawn)	9.2%	-17.9%
57	CC1(C(=O)NCc2ccc3c(c2)OCO3)CCN1C(=O)CC1CCCC1 (stereo not drawn)	-4.6%[18.4 µM]	-7.5%
58	CC1(C(=O)Nc2ccc3c(c2)OCCO3)CSCC(=O)N1CCCn1ccnc1 (stereo not drawn)	-14.8%	-3.2%
59	Cc1ccc(-c2nc3c(c(SCC(=O)N4CCCC4)n2)COC(C)(C)C3)cc1	9.8%	-14.4%
60	COCCCN1C(=O)C(CC(=O)NC2CCCCC2)CC(C(=O)N(C)C)=C1C (stereo not drawn)	-7.7%	0.0%

no.	molecule	RE007 growth inh	2A StopGo
61	O=C(CCCl)N1c2ccccc2C=Cc2ccccc21	15.4%	-4.7%
62	COC(=O)[C@@]12C[C@@H](CC(=O)NCC34CC5CC(CC(C5)C3)C4)C(=O)N(Cc3cccc4ccccc34)C1=CCC(C)(C)C2	0.0%	-9.7%
63	Cc1cc(-c2ccc(F)cc2)n2ncc(-c3ccccc3)c2n1	2.2%	u
64	O=C(C[C@@H]1C=C[C@@H](NC(=O)c2cccnc2)[C@@H](CO)O1)NCc1ccncn1	2.6%	-8.5%
65	COc1ccc(S(=O)(=O)Nc2ccc(Nc3ccccc3)cc2)cc1	-6.7%	6.7%
66	Cc1ccc2oc(-c3cccc(NC(=O)c4ccccn4)c3)nc2c1	2.3%	67.0%[activator]
67	COCOc1ccc(C=O)cc1OCOC	-13.3%	-13.6%
68	Cc1cccc(-c2ccc(O)cc2CN2CCN(c3ncc(Cc4ccccc4)cn3)CC2)c1	-14.1%	-12.9%
69	COCCn1c(SCC(=O)Nc2ccc3c(c2)OCCO3)nc2ccccc2c1=O	2.9%	58.5%[activator]
70	Nc1ncnc2c1ncn2C1OC(C(=O)NC2CC2)C(O)C1O (stereo not drawn)	-1.1%	-16.4%
71	COc1ccc(-n2c(SCC(=O)Nc3nccs3)nnc2-c2ccc(Cl)cc2)cc1	-1.4%	11.6%
72	FC(F)(F)c1cccc(CN2CCN(c3ncccn3)CC2)c1	7.3%	-25.1%
73	CC(C)CCC[C@](C)(O)c1ccc(C(=O)O)cc1O	-9.7%	-16.4%
74	CCc1nc2ccc(C(=O)Nc3cccc(OCC(=O)N(C)C)c3)cn2c1N(C)Cc1cc2ccccc2s1	-11.0%	u
75	CCNC(=O)C1(C)CCCN(C(=O)c2ccc(F)c(C)c2)C1 (stereo not drawn)	-1.5%[18.4 µM]	-14.3%
76	CCc1nc2ccc(C(=O)Nc3cc(-c4ccccc4)ccc3OC)cn2c1N(C)Cc1ccc(OC)cc1	-22.7%	-9.2%
77	CCc1nc2c(OCC(N)=O)cccn2c1N(C)C(=O)c1ccc(OC)cc1	0.4%[18.4 µM]	-10.4%
78	CC(=O)c1sc(Nc2ccc3c(c2)OCO3)nc1C	-10.6%	0.0%
79	Nc1ccc(C=Cc2ccc(N)cc2)cc1	12.5%	44.8%[activator]
80	CC(C)c1csc(CN2CCC(C(=O)Nc3cccc(-c4ccco4)c3)CC2)n1	-27.9%	u

no.	molecule	RE007 growth inh	2A StopGo
81	O=C(Nc1ccccc1Cl)c1cc(C2CCCCN2S(=O)(=O)c2ccc(F)cc2F)on1 (stereo not drawn)	-13.9%	-28.3%
82	CN(Cc1ccccc1)C(=O)[C@@H]1CCCN1C(=O)[C@@H]1CCCN1C(=O)c1ccccc1	10.4%	-3.2%
83	Cc1ccccc1NC(=O)Cc1nc(COC(=O)CSc2ccc(F)cc2)cs1	14.8%	-1.9%
84	COc1cc(Cl)c(CNC[C@H]2O[C@@H](n3cnc4c(=O)[nH]c(N)nc43)[C@H](O)[C@@H]2O)c(Cl)c1O	-1.3%	-10.6%
85	Cc1ccccc1-c1nc2ccccc2c(=O)o1	-15.6%	-20.7%
86	Cc1cc2nc(C(C)(C)C)c(Cc3ccccc3C(F)(F)F)n2c(C)c1Br	u	-21.1%
87	CCOc1ccc(OCC(=O)NCCS(=O)(=O)N2CCN(c3ccccc3)CC2)cc1	0.7%	-27.3%
88	O=S1(=O)CC(N2CCN(CCO)CC2)CN1Cc1ccc(F)cc1 (stereo not drawn)	-1.9%	-12.1%
89	COc1c(F)cccc1C1=CC(=O)C[C@H](c2ccc(F)cc2)C1	5.6%	-12.2%
90	O=C1NCN(c2ccccc2)C12CCN(C(c1ccccc1OC(F)(F)F)c1nnnn1C1CCCCC1)CC2 (stereo not drawn)	-7.1%	-1.5%

In the list so far, these have bromine:
no.	molecule	RE007 growth inh	2A StopGo
28	C[C@H](CO)N1C[C@H](C)[C@@H](CN(C)Cc2cncnc2)Oc2cc(Br)ccc2S1(=O)=O	14.5%	0.1%
86	Cc1cc2nc(C(C)(C)C)c(Cc3ccccc3C(F)(F)F)n2c(C)c1Br	u	-21.1%
